From PubChem BioAssay
KCNQ2 pot: potentiators of rat KCNQ2 potassium channel | CHO-K1 KCNQ2, FluxOR thallium flux fluorescence; hits give high values | B-score at 10 µM | 310,000 tested, 0.54% active;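 active = fluorescence ratio B-score at least 3 SD of library B-scores, with initial fluorescence B-score within 3 SD, cut at about 5.3 in these data; same plate scores as AID 2156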;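 note: B-score of peak minus minimum over baseline fluorescence ratio after K+ and Tl+ stimulus; positive B-score means potentiation of KCNQ2 with more thallium influx and brighter signal; only the inactives scoring about 0 or higher are listed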
Target sequence (O88943 whole entry, looked up): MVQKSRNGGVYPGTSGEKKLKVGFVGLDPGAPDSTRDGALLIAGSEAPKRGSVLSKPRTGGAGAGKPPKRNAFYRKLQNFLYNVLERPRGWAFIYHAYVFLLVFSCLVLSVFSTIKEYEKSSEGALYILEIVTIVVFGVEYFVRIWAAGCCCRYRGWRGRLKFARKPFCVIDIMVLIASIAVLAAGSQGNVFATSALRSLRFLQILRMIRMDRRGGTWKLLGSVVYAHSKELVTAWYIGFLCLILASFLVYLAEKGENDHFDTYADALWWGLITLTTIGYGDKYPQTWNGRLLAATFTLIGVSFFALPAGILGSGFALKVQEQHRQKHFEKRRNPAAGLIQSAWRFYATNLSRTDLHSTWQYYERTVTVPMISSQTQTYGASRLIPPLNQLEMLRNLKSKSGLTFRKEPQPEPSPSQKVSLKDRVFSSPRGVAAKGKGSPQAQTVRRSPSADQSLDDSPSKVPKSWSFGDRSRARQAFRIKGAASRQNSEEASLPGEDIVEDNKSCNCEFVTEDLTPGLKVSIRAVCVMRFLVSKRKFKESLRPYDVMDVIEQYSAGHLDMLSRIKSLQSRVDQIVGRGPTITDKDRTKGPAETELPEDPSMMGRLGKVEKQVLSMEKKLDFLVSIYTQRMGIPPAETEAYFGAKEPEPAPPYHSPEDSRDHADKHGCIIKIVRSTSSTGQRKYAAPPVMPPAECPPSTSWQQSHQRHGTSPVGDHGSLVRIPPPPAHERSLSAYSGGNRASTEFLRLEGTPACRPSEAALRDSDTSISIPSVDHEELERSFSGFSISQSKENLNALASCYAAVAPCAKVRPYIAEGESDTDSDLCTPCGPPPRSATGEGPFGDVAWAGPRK
KCNQ2 pot baseline: second read-out of KCNQ2 pot, no call of its own (marks repeat the call); B-score; compound at 10 µM; measured here: initial fluorescence intensity artifact check;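 brightness before thallium and not channel activity; 0 = typical well and far values either way flag optical interference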
Starred values were filed as active, the others as inactive. These rows are one share of the data; rates above refer to the full screens.

smiles,KCNQ2 pot,KCNQ2 pot baseline
O=C(CN1C2CCCC1CC(NC(=O)C1CCCCC1)C2)NCc1ccc(F)cc1 (centres undefined),0.52,-0.05
O=C(NCC1CCCO1)C1CC(=O)N(c2ccc(F)c(Cl)c2)C1 (centres undefined),1.2,-0.34
O=C(NCCC1=CCCCC1)C(=O)NCc1ccncc1,1.4,1.3
COc1cccc(NC(=O)c2nn(-c3ccc(OC)cc3OC)c(=O)c3ccccc23)c1,0.39,-0.62
O=C(O)/C=C/c1ccc(O)c(O)c1,1.2,-1
CCN1CCN(Cc2c(C)[nH]c3ccc(OC)cc3c2=O)CC1,0.82,0.06
COc1ccccc1OC(=O)Nc1ccc(Cl)cc1,1.2,0.57
CN(NC(=O)c1ccccc1F)c1nc(C(F)(F)F)nc2ccccc12,1.6,-0.77
CCCCc1cc(=O)oc2c3c(cc(OCC(=O)N4CCC[C@H]4C(=O)O)c12)OC(C)(C)CC3,0.02,0.01
COc1ccc(N2CCN(S(=O)(=O)CCNC(=O)Cc3ccc([N+](=O)[O-])cc3)CC2)cc1,0.4,0.17

(list continues)
smiles,KCNQ2 pot,KCNQ2 pot baseline
Cc1cccc(-c2noc(-c3ccccc3C(=O)NCc3ccco3)n2)c1,2.2,0.52
Cc1nnc(SCC(=O)NC2CCCCC2)n1C1CCCCC1,0.15,-1.5
CC(C(=O)Nc1cc([N+](=O)[O-])ccc1Cl)N1CCN(c2ccc(O)cc2)CC1 (centres undefined),0.37,-0.68
COc1ccc(CC(=O)Nc2ccc(S(=O)(=O)Nc3cc(C)on3)cc2)cc1,0.41,0.7
O=C(CCNS(=O)(=O)c1ccccc1C(F)(F)F)NCCCSc1ccccc1,1.1,-1.6
Cc1cc(N2CC(C(=O)O)CC2=O)ccc1Br (centres undefined),0.23,-0.48
O=C(O)/C=C/C(=O)Nc1ccc2c(c1)C(=O)c1ccccc1C2=O,0.69,0.38
NS(=O)(=O)c1ccc(CCNC(=O)Cc2ccc(S(=O)(=O)N3CCOCC3)s2)cc1,0.37,-2.9
O=C(COC(=O)CN1C(=O)C2CCCCC2C1=O)NC1CCS(=O)(=O)C1 (centres undefined),0.85,0.36
CCOC(=O)c1ccc(NC(=S)NN2CCOCC2)cc1,0.13,0.41

Further entries
smiles,KCNQ2 pot,KCNQ2 pot baseline
Cc1ccc(N(CC(=O)NCc2ccco2)C(=O)CCC(=O)Nc2nccs2)cc1,0.3,2.4
CCCCNCCOCCOc1ccc(F)cc1,1.5,-0.77
Cc1cc(C(F)F)n2nc(C(=O)NCc3ccccc3F)nc2n1,0.41,0.79
Cc1ccc(SCC(=O)OC(C)C(=O)Nc2ccc(S(N)(=O)=O)cc2)cc1C (centres undefined),0.01,1.4
CC(=O)NS(=O)(=O)c1cccnc1Nc1ccc(Cl)c(Cl)c1,3.8,-1
CN(C)CCNc1nc(-c2ccccc2)c2c(c1C#N)CC(C)(C)OC2,0.65,0.47
O/N=C/c1cc2ccccc2n1Cc1ccccc1F,1.2,-1.1
CC(C)c1ccc(/C=C/C(=O)Nc2nn[nH]n2)cc1,0.08,-1.6
Cn1cccc1Cc1nnc(SCC(=O)Nc2ccccc2)n1-c1ccc(F)cc1,0.75,-1.4
Cc1ccccc1CNC(=O)c1ccccc1C(=O)O,0.92,-0.12

Additional results.
smiles,KCNQ2 pot,KCNQ2 pot baseline
Cc1ccc(C(=O)NC(=S)Nc2cc(-c3nc4ccccc4s3)ccc2C)cc1,0.01,-0.53
CC(C)=CCCC(C)CN1CCC(n2nccc2NC(=O)c2cccnc2)CC1 (centres undefined),1.4,1.5
CN(c1ccc(C(=O)NC2CC2)cc1)S(=O)(=O)c1ccccc1,0.76,-0.19
Cn1c(CC(=O)Nc2ccc(Cl)c(Cl)c2)nnc1SCC(=O)Nc1nccs1,2.2,0.17
O=C(O)c1cccc(NC(=S)NC(=O)c2ccc3ccccc3c2)c1,2,-0.33
N#CC1=C(N)Nc2ncnn2C1c1ccccc1 (centres undefined),0.01,1.2
CCN(CC)C(=O)Nc1ccc(Br)cc1,0.68,-0.73
Cn1c(N)nc2ccccc2c1=O,2.1,0.4
CCN(C(=O)c1cccnc1SC)C12CC3CC(CC(C3)C1)C2,0.09,-0.24
CN(CC1CCCN(CCc2ccc(Cl)cc2)C1)C(=O)c1ccc2nc[nH]c2c1 (centres undefined),1.1,-1.7

Next section:
smiles,KCNQ2 pot,KCNQ2 pot baseline
O=C(NCc1cc(F)ccc1F)C1CCC(=O)N(C2CCCCCC2)C1 (centres undefined),0.37,2.2
O=C(Nc1ccc(Cl)cc1)N1CCC(c2ccccc2)C1 (centres undefined),0.39,-0.54
CC(/C=N/NC(=O)Cc1cccs1)=C\c1ccco1,0.39,1.7
CCOC(=O)CNC(=O)CSc1nc(N(C)C)nc(N2CCOCC2)n1,0.7,0.12
CC(=O)c1cccc(NC(=O)NC(C)c2ccncc2)c1 (centres undefined),0.58,-0.5
O=C(Cn1nnc2ccccc2c1=O)Nc1cc(C(F)(F)F)ccc1N1CCOCC1,0.74,-0.17
O=C(Cc1ccccc1)Nc1ccc2oc(-c3ccncc3)nc2c1,2.1,-0.42
CCN1CCC(NC(=O)Nc2ccc(F)cc2)CC1,1.4,0.68
Cn1c(=O)c([N+](=O)[O-])c(NCC(O)c2ccccc2)c2ccccc21 (centres undefined),0.03,-0.88
O=C(Cc1cccc2ccccc12)Nc1ccccc1C(=O)O,1.9,-0.56

Later entries:
smiles,KCNQ2 pot,KCNQ2 pot baseline
COc1ccc(-c2noc(CCC(=O)NCCCN3CCN(c4ccccc4F)CC3)n2)cc1,0.48,0.12
O=C(CN1CCN(Cc2ccc(Cl)cc2)CC1)N1CCc2ccccc21,0.49,0.69
CC1(C)CC(=O)C(C=NC2CC(C)(C)NC(C)(C)C2)=C(O)C1,0.43,0.96
c1ccc(-c2cn3c(n2)CCC3)cc1,0.46,0.88
CCC(=O)Nc1sc2c(c1C#N)CCCCC2,0.58,-0.1
Cc1ccc(-c2cc(Cc3ccc(F)cc3)c(=O)[nH]n2)cc1,1,0.02
O=C(NCCSCc1c(F)cccc1Cl)Nc1ccccc1,1.3,1.5
COc1ccc(/C=C/C(=O)c2cc3cccc(OC)c3oc2=O)cc1,3.4,3.5
CC(C)OCCCN1CC(=O)N2C(c3cccc([N+](=O)[O-])c3)c3[nH]c4ccccc4c3C[C@H]2C1=O (some centres undefined),0.04,0.64
Nc1[nH]n(-c2ccccc2)c(=O)c1N=Nc1ccccc1,0.24,0.01

Some values from above.
KCNQ2 pot baseline, Cc1ccc(-c2cc(Cc3ccc(F)cc3)c(=O)[nH]n2)cc1 is entered as 0.02
KCNQ2 pot baseline, Nc1[nH]n(-c2ccccc2)c(=O)c1N=Nc1ccccc1 is entered as 0.01
KCNQ2 pot baseline, COc1ccc(-c2noc(CCC(=O)NCCCN3CCN(c4ccccc4F)CC3)n2)cc1 is entered as 0.12

Next part
smiles,KCNQ2 pot,KCNQ2 pot baseline
CC(C)(C)NC(=O)CCCCCCCC(=O)NC(C)(C)C,0.06,-0.88
O=C(O)CCC(=O)N(Cc1ccco1)c1nc(-c2ccccc2)cs1,0.81,-2.3
Cc1ccc(NC(=O)CNC(=O)COc2ccccc2)nc1,2.3,1
COc1ccccc1OCCCCCCN1CCOCC1,0.03,-0.27
Cc1cccc(NC(=S)NC(=O)C(c2ccccc2)c2ccccc2)n1,0.3,0.08
CS(=O)(=O)Oc1ccc2c(c1)O/C(=C\c1cccnc1)C2=O,2,-1.5
C/C(CC(C)C)=N\Nc1ccc(S(N)(=O)=O)cc1[N+](=O)[O-],2.2,-0.44
CC(=O)CSc1nnc(-c2ccncc2)n1C,0.13,-0.02
Cc1ccc(S(=O)(=O)Nc2cccc(/C=C/C(=O)O)c2)cc1,1.4,1.2
COc1ccc(CC(=O)Nc2nc(-c3ccc(F)c(F)c3)cs2)cc1OC,0.15,-2.2

Additional entries
smiles,KCNQ2 pot,KCNQ2 pot baseline
O=C(NC1CC1)C1CCN(C2CCN(Cc3ccccc3C(F)(F)F)CC2)CC1,0.37,1.1
Cc1ccc(-c2csc(NC(CO)c3nc4ccccc4n3CCOCCO)n2)cc1 (centres undefined),0.07,1.4
Cc1sc2ncn3ncnc3c2c1C,1.8,-2.9
CC(C)C(C(=O)NC1CCCC1)N(Cc1ccco1)C(=O)CNS(=O)(=O)c1ccccc1 (centres undefined),0.3,-2.7
Cc1cs/c(=N/C(=S)Nc2ccccc2)n1C,0.02,-1.5
O=C(c1ccc(S(=O)(=O)Nc2ccc(F)cc2)cc1)N1CCN(c2ccccn2)CC1,0.54,-0.05
Cc1ccc(CC(CC(=O)O)C(=O)NC2CCCCC2)cc1 (centres undefined),1.4,-0.67
CCOC(=O)c1cc2c(nc1NC(=S)NCc1ccccc1)CCCC2,4,1.5
CCC(CC)C(=O)Nc1nnc(SCC(=O)NC2CC2)s1,0.85,-2.8
C/C(=C\CCC1(C)C2CC3C(C2)C31C)C(=O)O (centres undefined),1.6,0.05

The list continues:
smiles,KCNQ2 pot,KCNQ2 pot baseline
CS(=O)(=O)N1CCN(C(=O)CCc2ccccc2)CC1,1,-0.28
CCCC1CC(C(=O)Nc2ccccc2)C(=O)O1 (centres undefined),0.87,0.16
COc1ccc2nc3oc(C(=O)N4CCCCC4)cc3cc2c1,0.37,-0.55
Cc1ncoc1C(=O)Nc1ccc(Oc2ccccc2)cc1,1.3,1.8
O=S(=O)(c1ccc(F)c(Cl)c1)N1CCCC1,0.12,-0.78
Cc1ccc2nsnc2c1NC(=O)c1ccc2c(c1)OCCO2,0.58,0.59
Cn1nnnc1SCC(=O)Nc1ccccn1,1.7,0.02
O=S(=O)(N1CCCCC1)N1CCN(S(=O)(=O)N2CCCCC2)CC1,0.35,-0.66
Cc1cc(C)c(NC(=O)CSc2nnc(CNC(=O)c3ccccc3F)o2)c(C)c1,0.9,0.74
CC(=O)Nc1ccc(NC(=O)c2cc(-c3ccc(C)c(C)c3O)n[nH]2)cc1,1.2,-0.79

More compounds follow.
smiles,KCNQ2 pot,KCNQ2 pot baseline
Cc1cc(C)nc(Nc2nc3ccccc3o2)n1,1.1,-0.05
Cc1ccc(S(=O)(=O)CCC(=O)OCC(=O)NCC(=O)Nc2c(C)cc(C)cc2C)cc1,0.78,-0.37
COc1cccc(/C=N/Nc2nc(C)cc(=O)[nH]2)c1OC,0.52,-0.15
CCCCC(=O)N/N=C(\C)c1cccc(NC(=O)C2CC2)c1,0.45,-1.1
Cc1ccc2c(c1)N(CC(=O)NCCC1=CCCCC1)C(=O)c1cccnc1O2,4.6,-0.49
Cc1ccc(NC(=O)CCc2nc3ccccc3s2)c(O)c1,1.6,0.5
COc1ccc(C(=O)NCCSc2ccccc2)cc1,1.9,0.36
O=C(c1n[nH]c(=O)c2ccccc12)N1CCN(C2c3ccccc3-c3ccccc32)CC1,0.31,-0.01
N=c1c(C(=O)NCc2ccc3c(c2)OCO3)cc2c(=O)n3ccccc3nc2n1Cc1cccnc1,1.9,-0.01
CCOc1ccc2nc(NC(=O)c3ccoc3C)sc2c1,1.2,-0.11

Compounds from the list above with bromine (two):
smiles,KCNQ2 pot,KCNQ2 pot baseline
Cc1cc(N2CC(C(=O)O)CC2=O)ccc1Br (centres undefined),0.23,-0.48
CCN(CC)C(=O)Nc1ccc(Br)cc1,0.68,-0.73

The list continues.
smiles,KCNQ2 pot,KCNQ2 pot baseline
N#CCSc1nc2[nH]ncc2c(=O)n1-c1ccccc1Br,0.44,-0.01
CCN(CC(=O)Nc1ccccc1C(F)(F)F)C(=O)C1CSC2(C)CCC(=O)N12 (centres undefined),0.25,-0.45
Cc1ccc(C(=O)Nc2ccc(S(=O)(=O)N3CCc4ccccc4C3)cc2)o1,0.62,0.97
COc1ccc(NC(=O)CNC(=O)Cc2cccc3ccccc23)c(OC)c1,0.57,-0.06
CCN(CC)c1nc2n(c(=O)n1)CCN2CC,1.2,-1.6
CCOC(=O)Cn1nc(C)n(-c2ccc(Br)cc2)c1=O,1.1,1.7
CC(C)(C)N/N=C/c1cc(Cl)cc([N+](=O)[O-])c1O,0.79,-0.5
S=C(Nc1cccnc1)N1CCN(c2ccccc2Cl)CC1,1.7,-0.02
Cc1cc(N2CCN(C)CC2)nc2ccc(NC(=S)N3CCN(c4ccc(Cl)cc4)CC3)cc12,1.8,-0.23
CCCc1nnc(NC(=O)CCC(=O)N2CCN(Cc3cc(Cl)ccc3OC)CC2)s1,0.1,0.15

The list goes on:
smiles,KCNQ2 pot,KCNQ2 pot baseline
COc1ccc(C(N)=O)cc1N,1.3,-0.29
COc1ccccc1Nc1nc(N)nc(CN2CCC(C)CC2)n1,0.07,1.7
COc1cc([N+](=O)[O-])cc2sc(NC(=O)C3CC3)nc12,1.8,-0.78
Cc1ccc(C(=O)NCCNC(=O)c2ccccc2)cc1,1.1,-0.82
Cc1ccc(C2C3=C(CC(C)(C)CC3=O)OC3=C2C(=O)CC(C)(C)C3)cc1,0.78,0.05
Nc1c(C(=O)CCC(=O)O)oc2ccc(Cl)cc12,1.9,0.13
COC(=O)c1cccc(NC(=O)Cn2cnc3c2c(=O)n(C)c(=O)n3C)c1,0.42,0.02
CCOc1ccc(NC(=O)COC(=O)C2(C)CC2(Cl)Cl)c([N+](=O)[O-])c1 (centres undefined),1,-0.21
CC(=O)Nc1ccc(NC(=O)C(C)OC(=O)C2(c3ccc(F)cc3)CCCC2)cc1 (centres undefined),0.86,0.26
C=CCOc1ccc(Br)cc1CNCCCN1CCOCC1,1.2,-0.03

(next part)
smiles,KCNQ2 pot,KCNQ2 pot baseline
Cc1ccc(C)c2[nH]c(=O)c(CN(CC3CCCO3)C(=S)NCc3ccco3)cc12 (centres undefined),2.5,-0.27
CC(=O)NCCC(=O)Nc1nc(-c2cccs2)c(-c2cccs2)s1,0.49,1.1
Cc1c(-c2nnc(SCC(=O)O)n2-c2ccccc2Br)nnn1-c1ccccc1,1.3,0.15
O=C(NCCc1c[nH]c2ccc(Cl)cc12)c1cccnc1,0.43,0.02
